PINK1 modulator = A Quantitative High throughput Screen to Identify Chemical Modulators of PINK1 Expression | PINK1 immunofluorescence, high-content cytometry, 24 h | Potency, µM (titrated, usually from 76.6 µM), for the others: at the highest dose activation (PINK1 increase), most hits filed as activators | 0.2% of 410,000 active | AID 624263, 2012; active = well fitted activation curve with a large enough effect; inconclusive = small, poorly fitted or top-dose-only effect; inactive = flat fitted curve, though single readings scatter; cell line not stated here;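 also: % of control where 0% means no effect; nearly all actives have a fitted effect of over 65% in size; a mitochondrial uncoupler was the plate control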
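Measures PINK1 amount and localization on or inside mitochondria by immunofluorescence. Stable cells get compounds at 5 concentrations for 24 hours before fixation and staining; CCCP controls included.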
ClpP mod = qHTS Assay for Activators of ClpP | ATP-dependent Clp protease proteolytic subunit (Bacillus subtilis (strain 168)), P80244 | purified B. subtilis ClpP, FRET peptide cleavage, 20 min | 1.9% of 340,000 active | Potency, µM (titrated, usually from 57.5 µM), without a hit: top-dose activity change, negative = active; active = well fitted falling curve with a large enough effect; inconclusive = small, poorly fitted or top-dose-only effect; inactive = no such curve, though single readings can be large or run the other way; also: the source files actives as falling curves though it sought activators and does not explain the sign; nearly all actives have a fitted effect of over 65% in size; many hits overshoot -100%
Target sequence (P80244 whole entry, looked up): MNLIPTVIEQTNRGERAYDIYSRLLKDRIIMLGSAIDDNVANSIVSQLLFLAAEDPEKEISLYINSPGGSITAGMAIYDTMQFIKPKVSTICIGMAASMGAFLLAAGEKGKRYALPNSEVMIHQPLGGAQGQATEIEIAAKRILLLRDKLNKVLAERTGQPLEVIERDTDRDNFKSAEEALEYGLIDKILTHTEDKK
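FRET quenching reversal measured ClpP activation: 10 microg/mL B. subtilis ClpP at pH 8 with the FRET-FV decapeptide, read at 430 nm after 320 nm excitation. The 20-min minus 0-min signal was scaled between DMSO/no-enzyme wells and ADEP (5.8 microM final).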
* = called active by the depositor; ? = inconclusive. Potency is read from the fitted curve at half-maximal effect. Only part of the results is shown, so the mix of outcomes need not match the whole.

SMILES	PINK1 modulator	ClpP mod
O=C1c2ccccc2C(c2nnnn2-c2ccc3c(c2)OCCO3)N1Cc1ccc2c(c1)OCO2 (stereo not given)	6.9%	0.2%
COc1ccc(CNC(=O)CC(c2ccc(OC)c(OC)c2)N2Cc3ccccc3C2=O)cc1 (stereo not given)	-3.9%	-1.0%
CC(NS(=O)(=O)c1ccccc1[N+](=O)[O-])c1ccccn1 (stereo not given)	0.2%	-2.4%
COc1ccc(CNC(=O)C2=C(C)C(=O)OC23CCCCC3)cc1OC	0.8%	-0.8%
Cc1ccc(NC(=O)C2CCCN(C(=O)c3cnn(-c4ccccc4)c3-n3cccc3)C2)cc1 (stereo not given)	-0.6%	-1.7%
CC1CCN(S(=O)(=O)c2ccc(N3CCCCS3(=O)=O)cc2)CC1	-0.1%	-0.4%
CCOc1ccc(NC(=O)C(=O)c2cc(C)n(-c3cc(C)cc(C)c3)c2C)cc1	2.7%	-3.8%
O=C(Cc1ccc(NC(=O)N2CCSc3ncccc32)cc1)NCCc1ccccc1	-1.1%	?
O=C(COc1ccc(Cl)cc1)Nc1cc(-c2ccccc2)no1	-2.6%	-2.3%
Cc1ccc2c(CC(=O)Nc3c(C(=O)Nc4cccc(Cl)c4)oc4ccccc34)coc2c1C	1.6%	?
CCOC(=O)C1CCN(C(=O)Cn2ncc3c([nH]c4ccc(C)cc43)c2=O)CC1	3.0%	-7.2%
COc1ccc(Cl)cc1NC(=O)c1c(NCc2sccc2C)sc2c1CCCC2	2.9%	-0.8%
CCn1c(Oc2ccc(F)cc2F)nc2c1c(=O)n(C)c(=O)n2C	-0.6%	-0.3%
CCc1ccc(-n2nc(C)c3c(C(=O)NCCc4ccc(OC)c(OC)c4)cc(C)nc32)cc1	1.1%	-17%
Cc1nc(N2CCCC2)ncc1C(=O)N1CCN(c2ccc(Cl)cc2)CC1	2.8%	-2.9%
COc1ccc(NS(=O)(=O)c2ccc3nc(-c4ccccc4)[nH]c3c2)cc1	-0.3%	2.9%
CCCCNc1nc2c(c(=O)n(C)c(=O)n2C)n1CC(O)COc1ccccc1C (stereo not given)	0.5%	0.7%
CCn1cc(C(=O)N2CCN(c3ccccc3)CC2)c(=O)c2cc(S(=O)(=O)N3CCCC3)ccc21	2.7%	-0.4%
CC(=O)c1sc(N2C(=O)c3oc4ccccc4c(=O)c3C2c2ccc(C)cc2)nc1C (stereo not given)	2.0%	-0.1%
COc1ccc(N2CCN(C(CNC(=O)c3ccc(OC)c(OC)c3)c3cccnc3)CC2)cc1 (stereo not given)	1.2%	-3.0%
Cn1c(SCC(N)=O)nc2c([nH]c3ccccc32)c1=O	0.9%	-14%
Cn1c(=O)c(=O)n(C)c2cc(N3CCCC3)c(NC(=O)c3ccccc3F)cc21	0.5%	-8.6%
COc1ccc(CCNC(=O)CCCCn2c(=O)c3ccccc3n(Cc3ccc(F)cc3Cl)c2=O)cc1OC	-0.6%	4.6%
CCc1ccc(OCC(=O)N(Cc2ccc(Cl)cc2)C2CCS(=O)(=O)C2)cc1 (stereo not given)	-1.2%	-1.0%
Cc1ccc(N2CCN(S(=O)(=O)c3ccc4oc(=O)c5ncn(C)c5c4c3)CC2)c(C)c1	0.4%	-2.1%
CCOC(=O)c1ccc(NC(=O)c2cc3c(n(-c4ccc(C)cc4)c2=O)CC(C)(C)CC3=O)cc1	-0.2%	-30%
CCN(Cc1ccccc1)C(=O)c1sc2nc3n(c(=O)c2c1C)CCCC3	0.8%	-1.6%
CCOc1ccccc1NC(=O)C(=O)c1cc(C)n(-c2ccc(F)cc2)c1C	2.1%	-0.1%
CCOC(=O)C(Cc1ccccc1)NC(=O)CCc1c(C)nc2c(c(C)nn2-c2ccc(C)c(C)c2)c1C (stereo not given)	-0.3%	-18%
Cc1nc(N2CCN(C)CC2)c2nnn(Cc3ccccc3)c2n1	0.8%	0.3%
CC1=C(c2ccc(C)c(C)c2)S(=O)(=O)N=C1N1CCC(C(=O)Nc2cccc(F)c2)CC1	3.7%	-0.1%
CC(=O)c1ccc(NC(=O)C2CCN(S(=O)(=O)c3c(C)noc3/C=C/c3ccc(C)cc3)CC2)cc1	0.5%	?
COc1ccc2cc3cc(C(=O)NCc4ccc(C)cc4)oc3nc2c1	6.9%	3.5%
CCCCCCCCN1C(=O)[C@H](CC(=O)NCc2ccccc2)C[C@@]2(C(=O)OC)CCCCC=C12	24%	2.1%
COC(=O)[C@]12CCCCC=C1N(Cc1cccc3ccccc13)C(=O)[C@H](CC(=O)N1CCN(C(=O)C3CC3)CC1)C2	0.1%	-0.3%
CS(=O)(=O)Nc1ccc(Br)cc1	1.8%	0.5%
Cc1cccc(N2CCN(C(=O)Cn3ncc4c3-c3ccccc3OC4)CC2)c1C	-1.3%	0.2%
COc1cc(C(=O)N2CCN(CCc3ccncc3)CC2)cc(OC)c1OC	1.3%	-0.4%
CCN(C(=O)CSc1nc2ccccc2nc1Cc1cccc(OC)c1)c1cccc(C)c1	0.0%	-3.5%
CCOC(=O)c1cnc2nc(NCc3cccc(Br)c3)[nH]n2c1=O	1.0%	4.1%
Cc1coc2c(C)c3oc(=O)c(CCC(=O)NCCc4ccccc4F)c(C)c3cc12	0.7%	?
CC(C)[C@@H]1Cc2[nH]c(=O)[nH]c(=O)c2[C@H](c2ccc(F)cc2)O1	-0.7%	0.9%
COC(=O)c1cc2oc3ccccc3c2n1CC(=O)Nc1ccc(OC)c(OC)c1OC	1.4%	4.4%
O=C(Nc1ccc(F)cc1)c1nc(SCc2ccccc2F)ncc1Cl	-0.7%	21%
COc1ccc(CNC(=O)CSc2nnc(C)c3c(C)n(-c4ccccc4)nc23)c(OC)c1	1.6%	-1.6%
Cc1ccc2oc3c(c(=O)c2c1)C(c1ccc(O)cc1)N(c1nc(C)c(C)s1)C3=O (stereo not given)	-0.5%	1.0%
COc1cc(C(=O)NCC(c2ccc(N(C)C)cc2)N2CCCC2)cc(OC)c1OC (stereo not given)	-0.6%	-0.8%
O=C(NCCc1ccccc1)C(=O)NCC(c1cccnc1)N1CCN(c2ccccc2F)CC1 (stereo not given)	-0.3%	-0.7%
CCc1ccc(NS(=O)(=O)c2ccc3[nH]cc(C(=O)NC4CCCC4)c(=O)c3c2)cc1	5.6%	-24%
O=C(Cn1cnc2c(oc3ccccc32)c1=O)Nc1ccc(OC(F)(F)F)cc1	1.5%	2.9%
Cc1ccc(C(=O)c2cn(CC(=O)NCc3ccccc3Cl)c3nc(C)ccc3c2=O)cc1	-0.6%	-0.4%
O=C(CSc1nnc2ccc3ccccc3n12)c1ccc(F)cc1	-0.3%	-14%
Cc1cccc(C)c1-n1nnnc1C(c1ccnc2ccccc12)N1CCN(C(=O)OC(C)(C)C)CC1 (stereo not given)	1.7%	-1.1%
Cc1ccc2c(=O)cc(C(=O)Nc3ccc(S(=O)(=O)N(C)Cc4ccccc4)cc3)oc2c1C	13%	-0.1%
CCOC(=O)c1ccc2oc(=O)n(Cc3ccccc3)c2c1	0.9%	-4.6%
N=C(N)n1ncc2c1CCCC2=O	0.8%	?
O=C(NCc1ccccn1)[C@@H]1CCCN1C(=O)[C@@H]1CCCN1C(=O)c1cccc2ccccc12	1.7%	-6.5%
Cc1ccc(Cn2c(C(C)NC(=O)c3ccccc3)nc3ccccc32)cc1 (stereo not given)	-0.4%	-0.3%
Cn1c(-c2ccc(S(=O)(=O)N3CCCC3)cc2)csc1=Nc1ccc(Cl)c(Cl)c1	0.8%	-7.6%
COc1ccc(-n2nc3c(N4CCC(C(=O)NCc5cccc(F)c5)CC4)nnc(C)c3c2C)cc1	0.2%	3.8%

Among those listed so far, these contain bromine:
SMILES	PINK1 modulator	ClpP mod
CS(=O)(=O)Nc1ccc(Br)cc1	1.8%	0.5%
CCOC(=O)c1cnc2nc(NCc3cccc(Br)c3)[nH]n2c1=O	1.0%	4.1%

The listing continues.
SMILES	PINK1 modulator	ClpP mod
COCCCNC(=O)c1nn(C)c2c1CS(=O)(=O)c1ccccc1-2	-0.6%	-14%
Cc1ccc(CNC(=O)c2sc3nc[nH]c(=O)c3c2C)cc1	-1.1%	4.8%
Cc1ccc(CCNC(=O)c2cn(C)c3ccc(S(=O)(=O)N4CCC(C)CC4)cc3c2=O)cc1	1.3%	-0.9%
COc1ccc(-c2nc(C)c(CCNC(=O)C(=O)Nc3ccccc3F)s2)cc1	-0.3%	-6.2%
CCOC(=O)N1CCC(NC(=O)c2c(C)nn(-c3ccc(C)cc3)c2-n2cccc2)CC1	-0.2%	1.8%
Cc1ccc(Cl)cc1N1CCN(C(=O)c2sc3nc4n(c(=O)c3c2C)CCC4)CC1	0.2%	1.0%
Cc1c(C(=O)NCc2ccccc2)oc2c1-c1[nH]ncc1CC2	-1.4%	25µM*
Cn1c(=O)c2c(n3c4ccccc4nc13)NC(=O)CC2c1cccc(F)c1 (stereo not given)	1.5%	4.0%
Cc1cccc(NC(=O)CCc2c(C)nc3nc(CNC(=O)c4cccc(F)c4)nn3c2C)c1	4.6%	0.7%
O=C(C[N+]1(CCO)CCOCC1)c1cccs1	2.4%	0.0%
CC(C)CNC(=O)N1CCN(S(=O)(=O)c2ccc3c(ccn3C)c2)CC1	-0.6%	-1.0%
N#Cc1ccccc1Cn1c(=O)n(-c2ccccc2)c(=O)c2c3c(sc21)CCC3	2.4%	0.1%
Cc1nc(-c2ccccc2)sc1CCNS(=O)(=O)c1ccccc1	-0.6%	4.0%
Cn1cc(S(=O)(=O)N2CCCCCC2)cc1C(=O)NCc1ccccc1Cl	0.6%	0.3%
Cc1c(CNCCc2ccc(S(N)(=O)=O)cc2)c(C(=O)O)c(C)n1Cc1ccc(Cl)cc1	0.1%	-1.5%
Cc1ccc(NC(=O)[C@H](Cc2ccccc2)N2Cc3ccccc3C2=O)cc1F	4.8%	-1.1%
CCOc1ccc(NC(=O)CSC2=Nc3ccccc3C3=NC(CCC(=O)NCc4ccccc4)C(=O)N23)cc1 (stereo not given)	0.8%	1.3%
C=Cc1ccc(Cn2c(C(=O)O)c(CNCc3ccccc3)c3ccc(OC)cc32)cc1	-1.1%	-20%
COc1ccc(-c2nc3ccc(NS(=O)(=O)c4ccc(Cl)cc4)cc3o2)cc1	-1.3%	?
O=C(NCc1ccccc1Cl)C1CCC(CNS(=O)(=O)c2ccc(Cl)cc2)CC1 (stereo not given)	0.2%	-2.9%
Cc1ccc(C)c(NC(=O)CN2C(=O)C(C)(C)c3ccccc32)c1	2.5%	0.1%
Cc1ccc(C(=O)Nc2cc3c(cc2C)n(C)c(=O)c(=O)n3C)cc1	1.9%	-6.3%
CCCCSCCCNC(=O)C1CCC(CNS(=O)(=O)c2c(C)cc(C)cc2C)CC1 (stereo not given)	-0.5%	1.3%
Cc1ccc(-c2nc3ncccc3o2)cc1NC(=O)c1ccccc1Br	1.7%	-17%
CCn1cc(C(=O)N(C)Cc2ccccc2)c(=O)c2cc(S(=O)(=O)N3CCCCCC3)ccc21	0.8%	-3.1%
COc1cccc(NC(=O)Cn2c(=O)n(-c3ccc(Cl)cc3)c(=O)c3sc4ccccc4c32)c1	3.7%	32µM*
Cc1ccc(Cl)cc1N1CCN(C(=O)c2noc3c2CCCC3)CC1	18%	0.3%
CCCCC1Cc2[nH]c(=S)[nH]c(=O)c2C(c2ccc3ccccc3c2)O1 (stereo not given)	0.0%	-0.1%
CSc1ccc(Cn2nnc(C(=O)Nc3ccc(C)cc3Cl)c2N)cc1	4.6%	?
CCOc1ccc(S(=O)(=O)NCCc2sc(-c3ccc(C)cc3)nc2C)cc1	-0.8%	3.6%

Gathered by group: the compounds so far containing an NH in an aromatic ring.
SMILES	PINK1 modulator	ClpP mod
CCOC(=O)C1CCN(C(=O)Cn2ncc3c([nH]c4ccc(C)cc43)c2=O)CC1	3.0%	-7.2%
COc1ccc(NS(=O)(=O)c2ccc3nc(-c4ccccc4)[nH]c3c2)cc1	-0.3%	2.9%
Cn1c(SCC(N)=O)nc2c([nH]c3ccccc32)c1=O	0.9%	-14%
CCOC(=O)c1cnc2nc(NCc3cccc(Br)c3)[nH]n2c1=O	1.0%	4.1%
CC(C)[C@@H]1Cc2[nH]c(=O)[nH]c(=O)c2[C@H](c2ccc(F)cc2)O1	-0.7%	0.9%
CCc1ccc(NS(=O)(=O)c2ccc3[nH]cc(C(=O)NC4CCCC4)c(=O)c3c2)cc1	5.6%	-24%
Cc1ccc(CNC(=O)c2sc3nc[nH]c(=O)c3c2C)cc1	-1.1%	4.8%
Cc1c(C(=O)NCc2ccccc2)oc2c1-c1[nH]ncc1CC2	-1.4%	25µM*
CCCCC1Cc2[nH]c(=S)[nH]c(=O)c2C(c2ccc3ccccc3c2)O1 (stereo not given)	0.0%	-0.1%

Following part:
SMILES	PINK1 modulator	ClpP mod
CCOC(=O)c1ccc(NC(=O)c2c(NCc3cccs3)sc3c2CCCC3)cc1	1.9%	-2.2%
O=S1(=O)CC(N2CCN(CCO)CC2)CN1Cc1cn(Cc2ccc(C(F)(F)F)cc2)nn1 (stereo not given)	-0.5%	-1.7%
CCC(=O)Nc1ccccc1-c1nc2ccccc2n(C(C)C(=O)Nc2ccc(OC)cc2)c1=O (stereo not given)	1.2%	-2.0%
CCOc1cc(CNC(=O)C2COc3ccccc3C2)cc(OCC)c1OCC (stereo not given)	-1.4%	0.7%

Compound activity from PubChem.
